Mtb H37Rv: Confirmatory growth inhibition assay against Mycobacterium tuberculosis H37Rv, potency (AID 1949); most inactive calls were filed without a number and no value below 0 was filed; inhibition, % at 10 µg/mL, or IC50 in µg/mL where a hit was titrated; actives 1.6% (n = 100,000);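 active = confirmed in a dose series; inconclusive = about 50% or more but not retested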;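 also: bacteria grown 7 days with compound before Alamar blue readout; 0% = untreated bacteria and 100% = reference antibiotic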
An asterisk follows results filed as active; i = inactive; u = inconclusive.

| Structure | Mtb H37Rv |
| --- | --- |
| O=C(Nc1ccc(Br)c(C(F)(F)F)c1)c1ccccc1[N+](=O)[O-] | u |
| O=C(Nc1ccc(Cl)cc1C(F)(F)F)c1cccc(Cl)c1Cl | i |
| Cc1cc(C)cc(NC(=S)NCCCN2CCOCC2)c1 | 17% |
| Cc1c(C)n(C(=O)CSc2nncn2C)c2ccccc12 | i |
| O=C(NCCOc1ccccc1)c1ccc2c(c1)OCO2 | 1% |
| CN(C)CCn1nnc2c(=O)oc3ccccc3c21 | i |
| Cc1nc2ccccc2nc1OCc1ccc([N+](=O)[O-])cc1 | 2% |
| COc1ccc(C(=O)Nc2ccc(S(=O)(=O)N(C)Cc3ccccc3)cc2)cc1Br | i |
| COc1ccc(N(CC(=O)N(C)C)S(=O)(=O)c2ccccc2)cc1OC | i |
| Brc1ccc(NCc2ccccc2)nc1 | 3% |
| COc1ccc(CNC(=O)CN2C(=O)c3cccc4cccc(c34)C2=O)cc1 | i |
| O=S(=O)(c1ccc(F)cc1)N1CCN(c2nnc(-c3ccccc3)c3ccccc23)CC1 | i |

| Structure | Mtb H37Rv |
| --- | --- |
| O=S(=O)(Nc1ccc(S(=O)(=O)N2CCOCC2)cc1)c1ccc(Br)s1 | i |
| CCOC(=O)C1=C(C)NC2=C(C(=O)c3ccccc32)C1c1ccc(C(F)(F)F)cc1 (stereo not given) | 4% |
| COc1ccc(CCCC(=O)NC2CCCCC2)cc1 | 7% |
| S=C(Nc1ccc2c(c1)OCO2)N1CCCC1 | i |
| Cc1cc(Cl)c(Cl)cc1S(=O)(=O)Nc1ccc2cn[nH]c2c1 | i |
| COc1ccc(CN=C2NS(=O)(=O)c3ccccc32)cc1 | i |
| O=C(O)c1ccc2oc(SCC(=O)N3CCCCC3)nc2c1 | i |
| O=C(COc1ccc2ccccc2c1)NCCC12CC3CC(CC(C3)C1)C2 | 5% |
| O=C(OCc1ccccc1)C1C2C=CC3(CN(Cc4ccccc4)C(=O)C13)O2 (stereo not given) | i |
| O=Cc1ccc(OCC(=O)Nc2ccc(F)c(Cl)c2)cc1 | i |
| O=C(CC1NCCNC1=O)Nc1ccc(F)cc1 (stereo not given) | i |
| Cc1cc2c(cc1C)NC(c1coc3ccc(Cl)cc3c1=O)C1=C(CC(C)(C)CC1=O)N2 (stereo not given) | 14% |

| Structure | Mtb H37Rv |
| --- | --- |
| O=C(Nc1ccccc1)OCCCCCOC(=O)Nc1ccccc1 | i |
| O=C(O)C1CC(=O)N(Cc2ccccc2)C1 (stereo not given) | i |
| O=C(Nc1nncs1)C1COc2ccccc2O1 (stereo not given) | 4% |
| COc1ccc(/C=C(/NC(=O)c2ccccc2)C(=O)Nc2ccc(C(=O)O)cc2)cc1 | 4% |
| CCc1cc2c(NC(CCSC)C(=O)O)nc(C)nc2s1 (stereo not given) | i |
| COc1ccccc1NC(=O)C(=O)N1N=C(C(C)C)CC1(O)C(F)(F)F (stereo not given) | 2% |
| CCOC(=O)N1CCN(CC(O)COc2ccc3c(c2)CCC3)CC1 (stereo not given) | 6% |
| COc1cccc2cc(-c3nnc(Nc4cc(F)ccc4C)s3)c(=O)oc12 | i |
| CCc1ccccc1N(CC(=O)NC1CCCC1)S(C)(=O)=O | i |
| N#CCC(Cc1ccccc1)c1ccco1 (stereo not given) | i |
| COc1ccc(S(=O)(=O)Nc2cccc(SC)c2)cc1C | i |
| O=C1NC(=O)C(CCc2ccncc2)(CCc2ccncc2)C(=O)N1c1cccc(Cl)c1 | i |

| Structure | Mtb H37Rv |
| --- | --- |
| N=c1c2c(-c3ccccc3)c(-c3ccccc3)n(Cc3ccco3)c2ncn1Cc1ccco1 | 3.1µg/mL* |
| O=C(CN1CCOCC1)NC1C2CC3CC(C2)CC1C3 (stereo not given) | i |
| CCCNC(=O)Nc1cccc(F)c1C | i |
| C/C(=N\NC(=O)C1COc2ccccc2O1)c1ccc(Br)cc1 (stereo not given) | i |
| Cc1occc1C(=O)NNC(=S)NCC1CCCO1 (stereo not given) | i |
| CC(C)Oc1ccc(NC(=O)c2ccc(Br)cc2)cc1 | 1% |
| CSc1ccc(NC(=O)c2sc3nc4c(cc3c2N)CCC4)cc1 | i |
| O=C(c1ccco1)N1N=C(c2cccs2)CC1c1cccs1 (stereo not given) | i |
| COc1ccc(-c2nc3c4cnn(C)c4ncn3n2)cc1 | i |
| CC(C)N1CCN(C(=O)COc2ccc3ccccc3c2)CC1 | i |
| O=C(Nc1ncnc2oc(-c3ccccc3)c(-c3ccccc3)c12)c1ccco1 | i |
| CCc1ccc(OCC(=O)Nc2ccc(S(=O)(=O)Nc3cc(C)on3)cc2)c(Br)c1 | i |

| Structure | Mtb H37Rv |
| --- | --- |
| CCOC(=O)CSc1nc(C#N)c(SCC(=O)OCC)s1 | 2.3µg/mL* |
| O=C(CN1C(=O)C2C3c4ccccc4C(c4ccccc43)C2C1=O)Oc1ccccc1Cl (stereo not given) | 10% |
| CC(C)(C)c1cn2c3ccccc3n(CCN3CCCCC3)c2n1 | i |
| O=S(=O)(Nc1nc2ccccc2nc1N1CCN(c2ccccc2F)CC1)c1ccc(Cl)cc1 | i |
| CCN1CCN(CCCCOc2ccc(C)cc2I)CC1 | i |
| COc1cc(/C=N/NC(=O)Cc2n[nH]c(=O)[nH]c2=O)cc(Br)c1O | 5% |
| C=CCOc1ccc(CC2C(=O)N(C)C(=O)N(C)C2=O)cc1 | i |
| CCOc1ccc(C(=O)Nc2ccc(NC(=O)C(C)C)c(OC)c2)cc1Br | i |
| O=C(O)COc1ccc(NC(=O)C(c2ccccc2)c2ccccc2)cc1 | i |
| Cc1ccc(C(=O)NC(=S)Nc2cccc(C(=O)O)c2)cc1Cl | 6% |
| O=C(Nc1cccc(Cl)c1)Nc1ccccc1C1CC1(Cl)Cl (stereo not given) | 19% |
| Cc1ccc(CSCc2nc3ccccc3[nH]2)cc1 | i |

| Structure | Mtb H37Rv |
| --- | --- |
| c1ccc(Cn2ncc3c2ncn2c(CSc4nc5ccccc5o4)nnc32)cc1 | 0% |
| O=C(O)c1cccnc1SC1CC(=O)N(c2ccc(OC(F)F)cc2)C1=O (stereo not given) | i |
| CC(=O)c1ccc(NC(=O)NCc2ccc(F)cc2)cc1 | i |
| C=CCn1c(SCC(=O)Nc2cccc(SC)c2)nnc1-c1ccc(OC)cc1 | i |
| CC(C)CC(NC(=O)c1ccccc1Cl)C(=O)O (stereo not given) | i |
| Cc1ccc(OCCCCN2CCNCC2)c(I)c1 | i |
| CNC(=O)c1cc(C)c(-c2ccccc2)s1 | i |
| COc1ccc(CNC(=O)CN2C(=O)c3ccccc3C2=O)cc1 | 2% |
| CCN(CC)CC(=O)Nc1ccc(Oc2ccc(NC(=O)CN(CC)CC)cc2)cc1 | i |
| CC(=O)Nc1ccc(S(=O)(=O)NCCSCc2ccccc2C)cc1 | i |
| CC(=O)N(C)c1ccc(NC(=O)COc2ccc(C(C)C)cc2)cc1 | 3% |
| CCc1ccc(OCC(=O)Nc2cccnc2)c(Br)c1 | i |

| Structure | Mtb H37Rv |
| --- | --- |
| CC(C)CC(=O)N1CCN(S(=O)(=O)c2ccccc2[N+](=O)[O-])CC1 | i |
| Cc1ccc(CNC(=S)NC2CCN(C)CC2)cc1 | 1% |
| COc1cccc(-c2coc3cc4oc(=O)c5c(c4cc23)CCCC5)c1 | i |
| Cc1ccc2nsnc2c1S(=O)(=O)NC(C)(C)C | i |
| CCOC(=O)c1c(NC(=S)NCc2ccc(S(N)(=O)=O)cc2)sc(C)c1-c1ccccc1 | i |
| O=C(NC(=S)NCc1cccs1)c1ccccc1 | i |
| Cc1cc(OC/C=C/c2ccccc2)c2c(C)c(C)c(=O)oc2c1 | 1% |
| CCCCS(=O)(=O)c1sc2nc(C)cc(C)c2c1N | i |
| C=CCc1cc(OC)ccc1OCCCCn1cnc2ccccc2c1=O | 1% |
| COc1ccccc1CC(=O)Nc1ccccc1C(C)C | i |
| O=C(NCCCCNC(=O)C(F)(F)F)C(F)(F)F | i |
| CCC(=O)Nc1ccc(C(=O)OCC(=O)c2ccc(Br)cc2)cc1 | i |

| Structure | Mtb H37Rv |
| --- | --- |
| CCCCOc1ccc(C(=O)Nc2ccc(F)cc2F)cc1 | 0% |
| CSc1ccccc1NC(=O)c1ccc(CSc2ccccc2)cc1 | u |
| COc1ccc(NC(=O)CN(c2ccc(F)cc2)S(=O)(=O)c2ccc(OC)c(OC)c2)cc1OC | i |
| Cc1cc(C)cc(NC(=O)CSc2nnc(SCc3cccc4ccccc34)s2)c1 | 15% |
| O=C(Cc1ccc(Cl)cc1)NN1C(=O)c2ccccc2C1=O | i |
| Cc1ccc(NC(=O)C2CC(=O)NC(N3CCCCC3)=N2)cc1Cl (stereo not given) | i |
| COc1cc([N+](=O)[O-])ccc1NC(=O)COc1ccc(C(C)C)cc1Br | i |
| CCc1ccc(NC(=O)CN(c2cccc([N+](=O)[O-])c2)S(=O)(=O)c2ccccc2)cc1 | i |
| CCC(C)C(NC(C)=O)C(=O)NC(=O)NC(c1ccccc1)c1ccccc1 (stereo not given) | i |
| C=C1CN=C(N(Cc2ccccc2)S(=O)(=O)c2ccccc2)S1 | 4% |
| O=C(c1cc2cc(Br)ccc2oc1=O)N1CCCCCC1 | i |
| C=CCn1c(SCC(=O)NCCc2ccccc2)nnc1-c1ccncc1 | i |

| Structure | Mtb H37Rv |
| --- | --- |
| O=C(Nc1nnc(C2CC2)s1)C(Sc1ccccc1)c1ccccc1 (stereo not given) | i |
| CCC(C)N(C(=O)c1ccccc1)C(C)CC (stereo not given) | i |
| Cc1ccc2c(c1)CCCN2C(=O)c1ccco1 | 5% |
| Cc1ccc(C(=O)NC2c3ccccc3-c3ccccc32)cc1 | i |
| COc1ccc(C2CC(=O)C3=C(C2)Nc2ccccc2NC3c2coc3ccccc3c2=O)cc1 (stereo not given) | i |
| CC(NC(=O)c1ccccc1)c1ccccc1 (stereo not given) | i |
| COC(=O)C(N)c1ccccc1 (stereo not given) | i |
| COc1cccc(OC)c1C(=O)Nc1cccc(C#N)c1 | 0% |
| O=C(CSc1nnc(NC(=O)c2ccccc2Br)s1)c1ccc(F)cc1 | 3% |
| COc1ccc(Cc2nc3ccccc3n2Cc2ccc(C)cc2)cc1 | i |
| Cc1ccc2oc(C(=O)N(Cc3ccc(N(C)C)cc3)C3CCS(=O)(=O)C3)c(C)c2c1 (stereo not given) | 6% |
| CSc1nc(-c2ccco2)nn1S(=O)(=O)c1ccccc1 | i |

| Structure | Mtb H37Rv |
| --- | --- |
| CCn1c(SCC(=O)N2CCN(c3ccccc3)CC2)nnc1C(NC(=O)c1ccc(C)cc1)C(C)C (stereo not given) | i |
| CCOC(=O)c1ccccc1NC(=O)C(C)Sc1ccccc1 (stereo not given) | i |
| O=C(c1ccc(NC(=S)Nc2ccc(Cl)c(Cl)c2)cc1)N1CCCC1 | u |
| CS(=O)(=O)N1CCN(C(=O)c2ccc(-c3ccccc3)cc2)CC1 | i |
| C=CCOc1c(Br)cc(/C=c2\sc3n(c2=O)C(c2ccc(Cl)cc2)C(C(=O)OCC)=C(C)N=3)cc1Br (stereo not given) | i |
| CN(c1ccccc1C(=O)Nc1ccc(CC#N)cc1)S(C)(=O)=O | i |
| CNC(=S)Nc1ccc(OCc2ccccc2)cc1 | u |
| COc1cccc(OCCOc2ccc(Br)cc2)c1 | 3% |
| CC(=O)Oc1ccc(C(=O)Nc2ccccc2C(=O)Nc2cccc(C)c2C)cc1 | i |
| C=CCn1c(SCc2nc3ccccc3[nH]2)nnc1-c1ccco1 | 1% |
| Cn1c(SCc2nc3ccccc3n2CC(N)=O)nc2ccccc21 | i |
| COc1ccc(C2=CC(c3ccccc3)n3nnnc3N2)cc1 (stereo not given) | 4% |

Random excerpt: 3 compounds from above
| Structure | Mtb H37Rv |
| --- | --- |
| C=CCOc1ccc(CC2C(=O)N(C)C(=O)N(C)C2=O)cc1 | i |
| Cc1ccc2c(c1)CCCN2C(=O)c1ccco1 | 5% |
| CCc1ccc(OCC(=O)Nc2cccnc2)c(Br)c1 | i |

Carrying on.
| Structure | Mtb H37Rv |
| --- | --- |
| COc1cccc(NC(=O)COc2ccc(C=O)cc2)c1 | i |
| CC1CCc2c(sc3ncn(CC(=O)Nc4ccc(Cl)cc4)c(=O)c23)C1 (stereo not given) | 1% |
| Cc1ccc(S(=O)CC(O)CSc2nc(-c3cccs3)cc(-c3ccccc3)c2C#N)cc1 (stereo not given) | 2% |
| CCC(C)Nc1ncnc2c1cnn2-c1ccc(C)cc1C (stereo not given) | 2% |
| COc1ccccc1OCCCC(=O)Nc1ccc(S(N)(=O)=O)cc1 | i |
| CC(=O)Nc1ccc(NC(=O)c2ccccc2N(C)S(=O)(=O)c2ccccc2)cc1 | i |
| O=C(NC1C(=O)NNC1c1ccc(Cl)cc1)c1ccc(F)cc1 (stereo not given) | i |
| COc1cc2c(C(=O)N3CCCC3)c(C)n(-c3ccccc3)c2cc1Br | i |
| COc1ccc(NC(=O)c2ccco2)cc1NC(=O)c1ccc(Br)o1 | i |
| NC(=O)C1CCCN(S(=O)(=O)c2ccccc2)C1 (stereo not given) | 2% |
| CCc1sc(C(=O)NN2CCN(C)CC2)cc1Br | i |
| COc1ccc2c(c1)c(CC(=O)NCCc1ccccc1F)c(C)n2C(=O)c1ccc(Cl)cc1 | i |

| Structure | Mtb H37Rv |
| --- | --- |
| CCOC(=O)COc1c(I)cc(C(C)=O)cc1I | i |
| COc1ccccc1-n1c(/C=C/c2ccccc2)nc2ccc(I)cc2c1=O | i |
| CC(=O)Nc1cccc(NC(=O)CCC2CCCCC2)c1 | i |
| O=C(Nc1ccccc1F)C1CCCO1 (stereo not given) | i |
| CNCCCCOc1ccccc1Br | i |
| CC(Oc1ccc(F)cc1F)C(=O)NNC(=S)NCC1CCCO1 (stereo not given) | i |

Of the compounds above, these have a nitro group on carbon.
| Structure | Mtb H37Rv |
| --- | --- |
| O=C(Nc1ccc(Br)c(C(F)(F)F)c1)c1ccccc1[N+](=O)[O-] | u |
| Cc1nc2ccccc2nc1OCc1ccc([N+](=O)[O-])cc1 | 2% |
| CC(C)CC(=O)N1CCN(S(=O)(=O)c2ccccc2[N+](=O)[O-])CC1 | i |
| COc1cc([N+](=O)[O-])ccc1NC(=O)COc1ccc(C(C)C)cc1Br | i |
| CCc1ccc(NC(=O)CN(c2cccc([N+](=O)[O-])c2)S(=O)(=O)c2ccccc2)cc1 | i |

High-throughput results deposited in PubChem by Southern Research Institute.

An excerpt; count on the stated rates, not on these rows.
